Bioassay records: PubChem BioAssay, several laboratories
YopH PTP inh: YopH (Yersinia) phosphatase inhibition; AID 898; inhibition, %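 (about 10 µM by stock and volumes)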; fluorescence Ex485/Em525; 140,000 tested, 0.16% active;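 active means inhibition of 50% or more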;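 further: controls were vehicle for no effect and minimum signal wells for full effect; inactives centre near -20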
Mtb H37Rv: M. tuberculosis H37Rv growth inhibitors, H37Rv strain (AID 1626); inhibition, % at 10 µM; hits with a dose series show IC50 in µM; 220,000 tested, 0.95% active; M. tuberculosis H37Rv growth inhibition; higher % means a stronger effect;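 active means confirmed in a dose series; inconclusive means inhibition above 80% but not taken into the dose series; inactive means below 80% or under 30% at every dose of the series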;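 further: bacteria incubated seven days before Alamar blue readout; 0% = bacteria only wells and 100% = bacteria with antibiotic wells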
Mtb betalactam: beta-lactam sensitization of Mtb H37Rv; 330,000 tested, 0.27% active; inhibition, % at 25 µM; M. tuberculosis H37Rv growth with meropenem, percent inhibition; hits of this screen are not shown here;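 active means about 74% or more and at least 40 points above the plate without the antibiotic, then above 30% in a dose series; inconclusive means first-round hits that could not be retested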;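 further: growth measured after seven days incubation then overnight dye step; 0% = bacteria only wells and 100% = bacteria with antibiotic; twin plates without the antibiotic show which effects depend on it; some results filed as inactive read as strong as hits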
RecA intein inh: Mtb RecA intein splicing inhibition; cell-free RecA intein splicing, fluorescence; P9WHJ3; 290,000 tested, 0.75% active; inhibition, %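 (about 9 µM by stock and volumes)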; in the data active means inhibition above about 30%; inconclusive means no clear call, values can overlap the other calls;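 further: 0% = vehicle wells and 100% = reference inhibitor control wells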
Target sequence (P9WHJ3 whole entry, looked up): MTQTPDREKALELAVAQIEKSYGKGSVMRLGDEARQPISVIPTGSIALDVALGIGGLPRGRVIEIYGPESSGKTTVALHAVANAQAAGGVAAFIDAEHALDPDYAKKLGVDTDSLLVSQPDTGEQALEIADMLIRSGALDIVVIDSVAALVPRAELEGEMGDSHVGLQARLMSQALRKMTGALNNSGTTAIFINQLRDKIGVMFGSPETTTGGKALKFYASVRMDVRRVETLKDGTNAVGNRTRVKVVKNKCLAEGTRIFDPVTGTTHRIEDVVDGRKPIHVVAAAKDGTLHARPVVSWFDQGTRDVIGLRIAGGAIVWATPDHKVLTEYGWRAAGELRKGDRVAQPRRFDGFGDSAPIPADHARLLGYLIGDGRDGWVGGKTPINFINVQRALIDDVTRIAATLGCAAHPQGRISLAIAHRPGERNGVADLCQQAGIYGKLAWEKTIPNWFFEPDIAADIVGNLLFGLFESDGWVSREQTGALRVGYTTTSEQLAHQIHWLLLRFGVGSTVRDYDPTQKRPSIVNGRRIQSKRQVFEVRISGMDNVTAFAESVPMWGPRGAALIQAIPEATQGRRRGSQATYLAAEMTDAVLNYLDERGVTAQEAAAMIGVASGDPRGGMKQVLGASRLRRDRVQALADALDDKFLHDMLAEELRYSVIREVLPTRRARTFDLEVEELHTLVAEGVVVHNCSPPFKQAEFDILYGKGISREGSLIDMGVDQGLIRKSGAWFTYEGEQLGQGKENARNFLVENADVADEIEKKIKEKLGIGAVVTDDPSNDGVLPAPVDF
Arbovirus inh: antivirals against arbovirus infection; arbovirus infection cell-based antiviral screen; inhibition, % at 10 µM; 200,000 tested, 0.37% active; AID 1251;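 active means inhibition from about 30%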;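 further: bluetongue infection of BSR cells; cell survival read as ATP light after 72 h; 0% = infected wells without compound and 100% = uninfected wells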
Arbovirus inh repeat: second read-out of Arbovirus inh, no call of its own (marks repeat the call); inhibition, %; measured here: 10K subset replicate screen; many hits read low in the repeat;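 first of two repeat runs on a subset; 0% = infected and 100% = uninfected wells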
The depositor's hits bear a star; ? = inconclusive; / = not tested or not shown; & = joins results of further samples. Some of the compounds tested. The share of hits here may be higher or lower than overall.

SMILES	YopH PTP inh	Mtb H37Rv	Mtb betalactam	RecA intein inh	Arbovirus inh	others
Cc1ccc(Nc2nc(N)c([N+](=O)[O-])c(NCCO)n2)cc1C	/	4%	83	2.6	/
COc1cccc(CNS(=O)(=O)c2ccc(S(=O)(=O)NC3CC3)cc2)c1	/	/	1	-2.5	/
O=C(NCc1ccccc1)/C(=C\c1ccccc1)NC(=O)c1ccco1	/	/	7	0.4	/
Cc1ccc(NC(=S)NCc2ccccc2)c(C)c1	/	/	10	6.7	/
Cc1ccc(NC(=O)CCn2nnc3ccccc32)c(C)c1	/	-8%	1	-2.2	-2
N#C/C(=C\c1c(N2CCCCCC2)nc2ccccn2c1=O)C(=O)NC1CCS(=O)(=O)C1 (centres undefined)	-25	-2%	-2	-2.4	1
CN1CCN(c2ccccc2NC(=O)c2ccc(-c3cccc(Cl)c3)o2)CC1	/	/	92	9.9	/
Nc1ncnc(Nc2ccc(S(N)(=O)=O)cc2)n1	/	-10%	5	2.1	/
CCOc1ccc(CCNC(=O)c2ccc(CS(=O)Cc3ccc(Cl)cc3)o2)cc1OCC (centres undefined)	/	/	4	-0.9	/
Cc1ccc(C)c2[nH]c(=O)c(CCNS(=O)(=O)c3ccccc3)cc12	-18	1%	-3	1.7	5
Cc1c(C(=O)N(C)Cc2cccc(F)c2)oc2c(Cl)cccc12	/	/	4	16	/
O=C(NNC1=Nc2ccccc2SC1)c1ccc(Cl)cc1	/	?	96	0.1	/
CCN(c1ccc(F)cc1)S(=O)(=O)c1cccc2nsnc12	/	/	1	1.4	/
CC1CN(C(=O)c2cc(COc3c(F)cccc3F)on2)CCN1C (centres undefined)	/	/	-8	3.6	/
COc1cccc(CN2CCCCC2C(=O)O)c1 (centres undefined)	/	-3%	6	0.3	5
CCC(=O)N1CCCc2cc(S(=O)(=O)N3CCN(c4ncccn4)CC3)ccc21	-14	2%	-4	1.4	7
CCOc1ccc(NC(=O)c2cccc(NC(=O)c3ccccc3)c2)cc1	/	/	2	3.7	/
COc1ccc(NS(=O)(=O)c2cccc3nsnc23)cc1Cl	/	/	4	2.3	/
COc1ccc(C2Nc3ccccc3C(=O)N2Cc2ccccc2)cc1CSc1ccccn1 (centres undefined)	-27	/	1	-1.8	0
COC(=O)c1cc2sc(Cl)cc2n1Cc1nc(-c2cccc(C)c2)oc1C	-35	-2%	/	/	-1
COC(=O)c1cc(OC)c(OC)cc1NC(=O)CSc1nnc(-c2cccnc2)n1C	30	-4%	6	-1.8	11
O=C(c1cc(COc2ccc(F)c(F)c2)on1)N1CCOCC1	/	/	9	-2.0	/
O=C(CCCC(=O)NCC1CCCO1)NCC1CCCO1 (centres undefined)	-25	-10%	-4	-2.3	1	Arbovirus inh repeat=3
CCOc1cc(/C=C(/NC(C)=O)C(=O)O)cc(Cl)c1OCc1ccc(Br)cc1	/	0%	9	3.2	/
Cc1ccc(Cl)c(OCCCCN(C)Cc2ccccc2)c1	-26	0%	-2	0.1	5
CN1C2CCC1CC(OC(c1ccccc1)c1ccccc1)C2 (centres undefined)	/	3%	-3	-0.4	/
C#CCNC(=O)C1=C[C@@H](C2CC2)[C@H](CCCO)[C@@H](OCC)O1	/	-10%	-16	-1.2	2
Cc1cc(C)c(NC(=O)/C=C\C(=O)O)c([N+](=O)[O-])c1	-31	2%	-16	-2.5	5
CCOC(=O)c1cc(CC)sc1NC(=O)c1ccc([N+](=O)[O-])c(N2CCOCC2)c1	-29	2%	5	-5.3	-9
C/C(=N\NC(=O)c1ccccc1Cl)c1ccccn1	/	/	99	-0.9	/
COc1ccc(/C=N/NC(=O)c2nn(-c3ccc(C)c(C)c3)c(=O)c3ccccc23)cc1	-23	-3%	3	-1.5	-6
O=C(C1CCCN(Cc2cc(Br)ccc2O)C1)N1CCCCC1 (centres undefined)	/	/	-3	-1.5	/
Cc1ccc2nc(N3C(=O)C(O)=C(C(=O)c4ccco4)C3c3ccc(O)cc3)sc2c1 (centres undefined)	/	/	6	4.0	/
Cc1nn(-c2ccccc2)c(C)c1/C=C/C(=O)OC(C)C(N)=O (centres undefined)	-25	-4%	4	-2.9	-3
O=C(Cc1ccc(F)cc1)Nc1c(C(=O)N2CCN(c3ncccn3)CC2)oc2ccccc12	/	/	5	-2.0	/
O=C(CNC(=O)c1ccc(Br)o1)Nc1ccccc1	/	/	0	-1.3	/
O=C(Nc1ccc(N2CCN(C(=O)c3ccco3)CC2)cc1)c1ccco1	/	-1%	-18	-1.3	-11
Nc1cc(-c2cccc(Br)c2)nn1Cc1ccccc1	-3	7%	-3	5.1	0
O=S(=O)(F)c1ccc2nc(-c3cccc(Sc4ccccc4)c3)cc(Cl)c2c1	/	35%	99	3.2	/
CC1CCCCN1S(=O)(=O)c1ccc(N(C(=O)c2cnccn2)C(C(=O)NC2CCCCC2)c2cccs2)cc1 (centres undefined)	-6	38%	2	10	-10
O=C(Nc1nc(-c2cc(F)ccc2F)cs1)C1=COCCO1	/	/	-4	-2.0	/
CCCC(=O)c1cn(CC(=O)OC)c2ccccc12	-34	2%	-4	0.3	-1
CC(=O)COC(=O)C1CCN(S(=O)(=O)c2cc([N+](=O)[O-])ccc2Cl)CC1	/	6%	2	2.8	/
Cc1csc(NC(=O)CSc2nc3ccccc3s2)n1	-6	16%	58	4.6	9
CC(=O)NCCc1ccc(S(=O)(=O)N2CCN(c3nc(-c4ccccc4)c(C)s3)CC2)cc1	/	/	3	4.6	/
COc1cc(NC(=O)c2ccnn2C)c(OC)cc1Cl	/	3%	4	-1.5	-2
CCOC(=O)C1C(=O)C=C(c2ccc([N+](=O)[O-])cc2)CC1c1ccccc1 (centres undefined)	-18	-2%	-3	-0.5	-6
CCC(=O)Nc1cccc(NC(=O)CSc2nnnn2Cc2ccccc2)c1	-47	7%	-6	-2.3	-7
CCNC(=O)CN(CCc1ccccc1)S(C)(=O)=O	-34	-4%	-15	-2.1	2
O=C(COc1ncnc2ccccc12)NCc1ccc2c(c1)OCO2	-23	2%	-12	-1.5	4

By substructure, those above with bromine.
SMILES	YopH PTP inh	Mtb H37Rv	Mtb betalactam	RecA intein inh	Arbovirus inh	others
CCOc1cc(/C=C(/NC(C)=O)C(=O)O)cc(Cl)c1OCc1ccc(Br)cc1	/	0%	9	3.2	/
O=C(C1CCCN(Cc2cc(Br)ccc2O)C1)N1CCCCC1 (centres undefined)	/	/	-3	-1.5	/
O=C(CNC(=O)c1ccc(Br)o1)Nc1ccccc1	/	/	0	-1.3	/
Nc1cc(-c2cccc(Br)c2)nn1Cc1ccccc1	-3	7%	-3	5.1	0

Back to the main list, starting 2 compounds before the break.
SMILES	YopH PTP inh	Mtb H37Rv	Mtb betalactam	RecA intein inh	Arbovirus inh	others
CCNC(=O)CN(CCc1ccccc1)S(C)(=O)=O	-34	-4%	-15	-2.1	2
O=C(COc1ncnc2ccccc12)NCc1ccc2c(c1)OCO2	-23	2%	-12	-1.5	4
CCCCOC(=O)c1ccc(NC(=O)c2ccccc2OC)cc1	-12	38%	83	7.3	7
COc1ccc(CCN2C(=O)N(c3ccc(OC)cc3)C(=O)C2CC(=O)Nc2ccccc2)cc1 (centres undefined)	/	-10%	-1	1.7	1
Cc1ccc(Oc2ncnc(N)c2[N+](=O)[O-])cc1C	/	4%	-2	1.4	0
CCc1nnc(NC(=O)CSc2nnc(-c3ccccc3O)n2-c2ccc(C)cc2C)s1	-20	4%	1	-10	11
Cc1oc2c(cc(NS(=O)(=O)c3cccs3)c3ccccc32)c1C(=O)OC(C)C	-11	/	-4	3.7	-2
COc1ccc(NC(=O)Cn2c(-c3ccccc3)cn(-c3ccc(C)cc3)c2=O)cc1	-22	-3%	1	2.4	2
O=C(COc1ccc(CO)cc1Cl)Nc1ccc(F)cc1	-37	-6%	?	0.5	17
COc1cc(C(C)=O)ccc1OC(=O)N(C)c1ccccc1	/	/	-7	-0.1	/
CC(C)(C)c1ccc(NC(=O)NCc2ccco2)cc1	-6	8%	0	2.0	-20	Arbovirus inh repeat=-13
CC(C)(CC(=O)O)CC(=O)Nc1cc(C(F)(F)F)cc(C(F)(F)F)c1	/	-16%	-2	-0.2	/
COc1ccc(NC(=O)CSc2nnc(C3CCCCC3)n2N)cc1	/	0%	0	-0.4	/
Nc1cc(C(=O)OCC(=O)NCCNC(=O)COC(=O)c2ccc(Cl)c(N)c2)ccc1Cl	/	/	2	-1.4	/
COc1ccccc1NS(=O)(=O)c1cc(C(=O)NCCC(C)C)ccc1F	/	-2%	-1	-0.7	-4
O=C(NC1CCCCC1)c1cc(-c2ccccc2Cl)on1	/	/	6	3.2	/
COc1ccccc1NC(=O)C1CC(C)OC1=O (centres undefined)	/	/	2	1.6	/
O=C(c1ccco1)N1CCN=C1SCc1ccccc1Cl	-7	17%	1	/	5
COc1ccc(COCC(O)CN2CCCC(C(F)(F)F)C2)cc1 (centres undefined)	/	/	-1	-0.9	/
O=C(CC(C(=O)O)P(=O)(c1ccccc1)c1ccccc1)c1ccccc1 (centres undefined)	/	6%	-8	3.9	0
Cc1c(C(=O)NCCn2ccc3ccccc32)cccc1[N+](=O)[O-]	/	14%	11	1.1	-3
Cc1[nH]nc2nc(SCC(=O)NCCC3=CCCCC3)n(-c3ccc(Br)cc3)c(=N)c12	/	/	-3	0.5	/
CC1=C(C)CC(C(=O)NNC(=O)c2cccc(Cl)c2)C(C(=O)O)C1 (centres undefined)	-46	-10%	4	4.4	2
O=C(NNC(=O)c1cc(Cl)ccc1O)c1cccc(S(=O)(=O)N2CCOCC2)c1	/	/	-1	4.6	/
O=C1/C(=C/c2ccco2)SC(=S)N1CC1CCCO1 (centres undefined)	/	0%	2	19	/
CCOCCCNC(=S)N1CCN(Cc2ccco2)CC1	/	3%	-4	-0.9	-2
O=C(CCSCCc1ccccn1)Nc1cc(F)ccc1F	-22	-5%	6	-5.6	6
COc1cc(C(=O)NCCCCc2ccccc2)cc(OC)c1OC	/	/	-1	0.9	/
C=CCn1c(SCC(=O)NCC2CCCO2)nc2scc(-c3ccc(OC)cc3)c2c1=O (centres undefined)	/	/	?	1.2	/
O=c1[nH]c(=O)n(CC2CCCO2)c(O)c1/C=C1\C=Nc2ccccc21 (centres undefined)	-18	8%&-3%	1&4	-2.8&-0.4	-4
COc1ccc(-n2c(C)cc(C(=O)Cn3nnc4ccccc4c3=O)c2C)cc1	-44	-8%	4	4.1	-1
CCCCOc1ccc(N(CC(=O)NC(C)(C)CC)C(=O)CCC(=O)Nc2ccccn2)cc1	/	-4%	26	-0.8	-12
CC(=O)NCCc1cnc[nH]1	/	/	-11	-2.2	/
CN(c1ccccc1)S(=O)(=O)c1cc(C(=O)Nc2nc3ccccc3[nH]2)ccc1Cl	-22	?	95	-1.9	-7
CCc1cc2c(NCc3ccccc3)nc(C)nc2s1	/	/	4	7.1	/
CCC(C(=O)NC1CC(C)(C)NC(C)(C)C1)c1ccccc1 (centres undefined)	/	/	0	-2.2	/
CCN(CC)S(=O)(=O)c1ccc(NC(=O)c2cccc3c2C(=O)N(CCOC)C3)cc1	-26	-13%	0	3.9	-20
Cc1c(F)cccc1NS(=O)(=O)c1ccc2c(c1)c(=O)n(C)c(=O)n2C	/	-6%	-2	/	-2
O=C(O)c1c[nH]c2c(C(F)(F)F)cccc2c1=O	-33	-6%	4	0.9	4
COC/C=C/C1=CC2=CC(=O)C(C)(OC(=O)c3cnc4ccccc4n3)C(=O)C2=CO1 (centres undefined)	/	-1%	2	4.7	/
CCc1ccc(CNC(=O)C2CC(=O)N(C3CCCC3)C2)cc1 (centres undefined)	/	/	-3	-0.8	/
CC(OC(=O)c1ccc(NC(=O)CC#N)cc1)C(=O)NC(=O)NC1CCCCC1 (centres undefined)	/	/	?	5.8	/
COC(=O)c1c(-c2ccc(OC)cc2)oc2ccccc12	/	/	25	11	/
ONC(=Nc1ccc(Cl)cc1)c1ccccc1Cl	-16	0%	6	20	-1
CCCCN(C(=O)c1cccc(S(=O)(=O)N2CCN(C)CC2)c1)c1c(N)n(CCCC)c(=O)[nH]c1=O	/	/	-3	-2.6	/
CCn1cc([N+](=O)[O-])c(C(=O)Nc2c(C)nn(Cc3cccc(F)c3)c2C)n1	-17	2%	-5	0.0	1
O=C(N/N=C/c1ccc([N+](=O)[O-])o1)c1ccc(NS(=O)(=O)c2cccs2)cc1	/	66%	100	22	/
CNC(=S)N/N=C(\C)c1cccc([N+](=O)[O-])c1	-28	-7%	-2	5.7	-6
Cn1c(Cc2ccccc2)nnc1SCC(=O)Nc1ccc2c(c1)OCCO2	-20	-20%	/	0.3	6
